Screening data (PubChem BioAssay)
Arbovirus anti: arbovirus infection inhibition. inhibition, % at 10 µM. AID 1251. arbovirus infection cell-based antiviral screen. 200,000 tested, 0.37% active;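 active means inhibition from about 30%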;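 further: bluetongue infection of BSR cells; cell survival read as ATP light after 72 h; 0% = infected wells without compound and 100% = uninfected wells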
YopH inh: inhibitors of Yersinia enterocolitica YopH tyrosine phosphatase. fluorescence Ex485/Em525. 140,000 tested, 0.16% active. AID 898. inhibition, %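 (about 10 µM by stock and volumes)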;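 active means inhibition of 50% or more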;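 further: controls were vehicle for no effect and minimum signal wells for full effect; inactives centre near -20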
Mtb growth: M. tuberculosis H37Rv growth inhibitors, H37Rv strain (AID 1626); M. tuberculosis H37Rv growth inhibition; higher % means a stronger effect; inhibition, % at 10 µM; hits with a dose series show IC50 in µM; 220,000 tested, 0.95% active;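 active means confirmed in a dose series; inconclusive means inhibition above 80% but not taken into the dose series; inactive means below 80% or under 30% at every dose of the series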;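 further: bacteria incubated seven days before Alamar blue readout; 0% = bacteria only wells and 100% = bacteria with antibiotic wells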
RecA splice inh: Mtb RecA intein splicing inhibition | P9WHJ3 | cell-free RecA intein splicing, fluorescence | inhibition, %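 (about 9 µM by stock and volumes)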 | 290,000 tested, 0.75% active | AID 2221; in the data active means inhibition above about 30%; inconclusive means no clear call, values can overlap the other calls;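 further: 0% = vehicle wells and 100% = reference inhibitor control wells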
Target sequence (P9WHJ3 whole entry, looked up, canonical isoform): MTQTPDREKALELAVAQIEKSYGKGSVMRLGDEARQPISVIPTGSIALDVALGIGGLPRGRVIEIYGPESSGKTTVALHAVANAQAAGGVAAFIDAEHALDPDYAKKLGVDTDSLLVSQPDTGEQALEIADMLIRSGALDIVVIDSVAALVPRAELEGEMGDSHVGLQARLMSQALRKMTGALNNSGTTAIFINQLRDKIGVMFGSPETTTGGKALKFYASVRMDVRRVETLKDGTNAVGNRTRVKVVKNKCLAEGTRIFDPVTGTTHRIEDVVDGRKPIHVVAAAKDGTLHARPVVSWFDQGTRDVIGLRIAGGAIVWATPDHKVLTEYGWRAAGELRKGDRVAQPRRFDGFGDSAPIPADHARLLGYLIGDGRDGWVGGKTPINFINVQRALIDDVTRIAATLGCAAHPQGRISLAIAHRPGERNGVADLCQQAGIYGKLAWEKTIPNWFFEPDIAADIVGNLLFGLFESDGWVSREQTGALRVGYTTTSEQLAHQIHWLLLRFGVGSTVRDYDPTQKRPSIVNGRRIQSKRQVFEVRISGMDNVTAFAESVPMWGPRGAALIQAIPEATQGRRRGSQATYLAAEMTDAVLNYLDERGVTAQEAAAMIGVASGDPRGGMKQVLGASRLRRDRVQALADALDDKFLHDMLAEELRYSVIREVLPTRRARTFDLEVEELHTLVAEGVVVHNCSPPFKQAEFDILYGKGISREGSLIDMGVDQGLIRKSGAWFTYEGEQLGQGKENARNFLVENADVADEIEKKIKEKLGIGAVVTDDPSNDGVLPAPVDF
Mtb bLac sens: beta-lactam sensitization of Mtb H37Rv | M. tuberculosis H37Rv growth with meropenem, percent inhibition; hits of this screen are not shown here | inhibition, % at 25 µM | 330,000 tested, 0.27% active | AID 434955;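 active means about 74% or more and at least 40 points above the plate without the antibiotic, then above 30% in a dose series; inconclusive means first-round hits that could not be retested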;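 further: growth measured after seven days incubation then overnight dye step; 0% = bacteria only wells and 100% = bacteria with antibiotic; twin plates without the antibiotic show which effects depend on it; some results filed as inactive read as strong as hits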
Arbovirus anti repeat: second read-out of Arbovirus anti, no call of its own (marks repeat the call); inhibition, %; measured here: 10K subset replicate screen; many hits read low in the repeat;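 first of two repeat runs on a subset; 0% = infected and 100% = uninfected wells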
An asterisk follows results filed as active; ? = inconclusive; · = not tested or not shown.

SMILES | Arbovirus anti | YopH inh | Mtb growth | RecA splice inh | Mtb bLac sens | others
COc1ccccc1C1NC(=O)CCC1[N+](=O)[O-] (stereo not drawn) | · | · | · | 3.8 | 0
O=C(Nc1ccc(O)cc1C(=O)O)c1ccc2c(c1)C(=O)N(Cc1ccco1)C2=O | 10 | -31 | -10% | 2.1 | 1
COc1ccc(S(=O)(=O)NCCOc2ccccc2)cc1F | · | · | · | 2.3 | ?
COc1ccc(C2OC[C@H]3O[C@H](O)[C@H](NC(C)=O)[C@@H](O)[C@@H]3O2)cc1 (stereo partly drawn) | 2 | · | -6% | -3.3 | ·
O=C(Nc1cccc2ncccc12)c1ccc2c(c1)OCCO2 | 2 | -29 | -4% | 0.0 | -5
CNc1ccncc1S(=O)(=O)NC | 1 | -29 | 4% | -0.2 | -2
NC(=O)NC(=O)COC(=O)c1cccnc1Nc1ccccc1F | · | · | -7% | -4.1 | 3
Cc1onc(-c2ccccc2)c1C(=O)c1ccccc1 | · | · | 3% | 1.9 | 1
CCCNC(=O)Nc1cc(OCC)c(N2CCOCC2)cc1OCC | -3 | -17 | -13% | -4.9 | -18 | Arbovirus anti repeat=-2
COc1ccccc1-c1csc(NC(=O)c2cc(-c3cccs3)nc3ccccc23)n1 | 3 | 11 | 62% | 4.0 | 26
CC1(C)CC(=O)c2sc(N)nc2C1 | -6 | -5 | -12% | -2.9 | 1
Cc1ccc(S(=O)(=O)NCC(=O)NCC(=O)OCC(=O)N2CC(=O)Nc3ccccc32)cc1C | 3 | · | 2% | 0.6 | -6
Cc1ccc(CN2CCC(n3nccc3NC(=O)CCOc3ccccc3)CC2)o1 | · | · | · | 1.6 | -4
O=C(OC1C2CCC1C1CN(CCc3ccccc3)CC12)c1ccccc1 (stereo not drawn) | 16 | -18 | 5% | 2.1 | 7
COc1ccc(N=Cc2c(C)[nH][nH]c2=O)cc1 | -9 | · | ? | -3.5 | 93

The last five entries of the section before come first, to join the parts:
SMILES | Arbovirus anti | YopH inh | Mtb growth | RecA splice inh | Mtb bLac sens | others
CC1(C)CC(=O)c2sc(N)nc2C1 | -6 | -5 | -12% | -2.9 | 1
Cc1ccc(S(=O)(=O)NCC(=O)NCC(=O)OCC(=O)N2CC(=O)Nc3ccccc32)cc1C | 3 | · | 2% | 0.6 | -6
Cc1ccc(CN2CCC(n3nccc3NC(=O)CCOc3ccccc3)CC2)o1 | · | · | · | 1.6 | -4
O=C(OC1C2CCC1C1CN(CCc3ccccc3)CC12)c1ccccc1 (stereo not drawn) | 16 | -18 | 5% | 2.1 | 7
COc1ccc(N=Cc2c(C)[nH][nH]c2=O)cc1 | -9 | · | ? | -3.5 | 93
Cc1c(Cl)cccc1NC(=O)Nc1ccn(C)n1 | 3 | -38 | -2% | 1.0 | -5
O=C(NC1CCCc2c1cnn2-c1cc(F)cc(F)c1)c1cc[n+]([O-])cc1 (stereo not drawn) | · | · | · | -0.8 | 2
COc1ccc(CCNC(=O)Cc2cc(OC)c(OC)cc2[N+](=O)[O-])cc1OC | 2 | 2 | -4% | -0.8 | -8
CCOc1cc(Cl)c(CNCCCN2CCOCC2)cc1OC | · | · | · | -3.7 | 0
Cc1ccc(S(=O)(=O)N2CCN(S(=O)(=O)c3ccc(C)cc3)C2c2ccccc2)cc1 | -3 | -15 | 2% | 5.1 | -14
CSc1ccccc1C(=O)NCCSC(C)(C)C | -3 | -13 | -5% | -1.6 | 6
Oc1ccc(CN2CCC(Cc3ccccc3)CC2)c2cccnc12 | -23 | · | 0% | · | ·
COc1ccc(NC(=O)Cn2nnc(C(=O)NCc3ccc(C)cc3)c2N)cc1OC | · | · | · | 1.2 | -2
CN1CCC(N(C)C(=O)CNC(=O)c2ccc(C(C)(C)C)cc2)CC1 | 15 | · | 0% | 0.2 | -2
Cc1nn(C(C)C(=O)NCCc2cccs2)c(=O)c2nn(-c3ccccc3)c(C)c12 (stereo not drawn) | · | · | · | 2.2 | -7
O=C(CSc1cccc2cccc(Cl)c12)NC1=NCCS1 | 16 | · | 5% | 1.6 | -4
N=c1n(Cc2ccc(Cl)cc2)c2ccccc2n1CC(O)c1ccco1 (stereo not drawn) | -38 | -30 | 6% | · | -7
COc1ccc(C(C(=O)NC2CCCCC2)N(C(=O)Cc2c[nH]c3ccccc23)c2ccccc2)cc1OC (stereo not drawn) | -20 | -21 | 8% | 10 | -1
CC(C)CC(=O)Nc1cccc(NC(=O)c2ccccc2Cl)c1 | 3 | -27 | -11% | 1.4 | -2
COCCn1cnc2c1c(=O)n(CC(=O)NN)c(=O)n2Cc1ccccc1 | · | · | · | -0.7 | -8
CC1(C)CC(=O)C(C=NCCN2CCN(C(=O)Cc3ccc(Cl)cc3)CC2)=C(O)C1 | 8 | -27 | 0% | · | -2
O=C(CCc1ccccc1)N1CCN(c2ccccc2F)CC1 | 13 | · | -1% | 1.5 | -6
O=C(COc1ccccc1)Nc1ccc(S(=O)(=O)Nc2ccccn2)cc1 | · | · | · | -3.1 | -2
Cc1cccc(N(C(=O)CNC(=O)c2ccco2)C(C(=O)NC2CCCC2)c2ccncc2)c1 (stereo not drawn) | 0 | -23 | -10% | 2.8 | 3
CCC1Sc2ccccc2N(CC(=O)NC2CC2)C1=O (stereo not drawn) | -1 | · | 1% | -1.1 | 2
CCCCN1C(=O)C(O)(CC(=O)c2ccco2)c2cc(Br)ccc21 (stereo not drawn) | -8 | -21 | 12% | 3.4 | 2 | Arbovirus anti repeat=-1
CC(c1ccccc1)N1C(=O)c2ccccc2C1O (stereo not drawn) | 3 | -13 | -8% | -0.9 | 4
Cc1ccnc(NC(=O)CN2C(=O)c3ccccc3C2=O)c1 | 3 | · | 6% | -0.7 | -4
COc1cccc(Nc2cc(C)c3ccccc3n2)c1 | · | · | · | 4.7 | 68
CCOC(=O)c1ccccc1NC(=O)COC(=O)C1=COCCO1 | 0 | 3 | 71% | 1.4 | 97
Nc1c(C(=O)N2CCOCC2)sc2nc(N3CCOCC3)c3c(c12)CCCC3 | · | · | -8% | 3.1 | 6
C=CC[n+]1c(-c2ccc(Cl)cc2Cl)csc1Nc1ccc(NC(C)=O)cc1 | -30 | · | 7% | 2.6 | 7
COc1ccc(CNC(=O)CS(=O)(=O)Cc2nc(-c3cccc(OC)c3)oc2C)cc1 | · | · | · | -2.8 | 7
CC(C)c1cc(=O)n2[nH]c(N)nc2n1 | 11 | · | 0% | 0.3 | -3
CC(=O)c1ccc(N2Cc3ccccc3/C2=N\C(=O)Nc2ccc(Cl)cc2)cc1 | -13 | -20 | 1% | 0.4 | 54
Cc1c(CNC2CCCC2)c(C(=O)O)c(C)n1Cc1ccccc1 | 4 | -24 | 0% | 0.5 | -1
CCOC(=O)c1sc(NC(=O)CCN2CCN(CC)CC2)c(C(=O)OCC)c1C | -11 | · | 10% | -4.2 | -3
CN(CC(=O)Nc1ccccc1Cl)C(=O)COC(=O)c1ccc([N+](=O)[O-])cc1Cl | · | · | · | -1.6 | 10
C/C(CC(=O)NCc1ccco1)=N\NC(=O)Cc1ccc(Cl)cc1 | 1 | -43 | -3% | 6.0 | 3
CN(C)S(=O)(=O)c1ccc(S(=O)(=O)NCc2cccs2)cc1 | · | · | · | -0.6 | 1
Cn1cccc1/C=C1/SC(=S)N(CC(=O)O)C1=O | 2 | · | -1% | -0.5 | -1
COc1cc(C(=O)NCC(=O)NCCN2C(=O)S/C(=C\c3ccccc3Cl)C2=O)cc(OC)c1OC | · | · | · | 9.5 | 5
COc1ccc(C(CC(=O)O)NS(=O)(=O)c2ccc3c(c2)N(C(C)=O)CC(C)O3)cc1 (stereo not drawn) | · | · | · | -2.6 | 16
COc1ccc(OCc2cc(C(=O)N(C)C3CCOC3)no2)c(Cl)c1 (stereo not drawn) | · | · | · | -0.8 | 2
CCS(=O)(=O)N1N=C(c2ccc(NS(C)(=O)=O)cc2)CC1c1ccccc1 (stereo not drawn) | 3 | -12 | -4% | 0.1 | 0
COc1ccc(C2=NC(CO)(CO)CO2)cc1 | 6 | · | 5% | -2.5 | 1
O=c1oc(-c2cccc([N+](=O)[O-])c2)nc2ccccc12 | · | · | · | 8.5 | 4
CCn1cc(C(=O)NCC2CCCO2)c(=O)c2cc(S(=O)(=O)N(C)C3CCCCC3)ccc21 (stereo not drawn) | -3 | -24 | -14% | -0.5 | -6 | Arbovirus anti repeat=-19
CCOC(=O)C1CCCn2c1nc1sc3c(c1c2=O)CCCC3 (stereo not drawn) | 3 | 3 | 5% | -0.8 | -2
Cc1nn(-c2ccc(F)cc2)c(Cl)c1/C=C(\CCC(=O)O)c1nc2ccccc2s1 | -6 | -30 | -2% | 1.8 | 11
COc1ccccc1-n1cnnc1SCC(=O)c1ccc[nH]1 | 8 | -7 | 4% | 0.3 | -4
O=C(CCOc1ccccc1)Nc1ccccc1[N+](=O)[O-] | -4 | · | 3% | 1.8 | -6
CCOC(=O)C1CCN(S(=O)(=O)c2nc3nc(C)cc(C)n3n2)CC1 | 3 | -11 | -1% | -0.2 | -10
CCn1c(CNC(=O)c2cccs2)nnc1SCC(=O)Nc1cc(Cl)ccc1C | 3 | 3 | -7% | 0.2 | -10
Cc1c(Cl)cccc1NC(=O)CCCn1nc([N+](=O)[O-])cc1C | -3 | · | 3% | 1.3 | -6
Brc1ccc(/C=N/Nc2ccc3ccccc3n2)cc1 | 2 | -53 | 4% | 3.1 | 85
CC1=C(C(=O)OC(C)C)C(c2coc3ccccc3c2=O)C2=C(CCCC2=O)N1 (stereo not drawn) | 5 | -8 | 0% | -0.3 | 1
CCCn1c(C(Cc2ccccc2)NC(=O)COC)nc2ccccc21 (stereo not drawn) | 2 | -31 | 5% | 1.0 | -2
CC(=O)c1cccc(OCc2cc(C(=O)N(C)Cc3cnccn3)no2)c1 | · | · | · | -0.8 | -2
CCOC(=O)C1CCN(Cc2nnc(-c3cccc(Br)c3)o2)CC1 | · | · | · | 0.9 | 89
O=C(Nc1ccc2c(c1)OCCO2)C1CC(c2ccccc2Cl)=NO1 (stereo not drawn) | · | · | · | -0.4 | 0
O=C(Nc1ccc(F)cc1)c1cc(S(=O)(=O)N2CCOCC2)cs1 | · | · | · | -4.7 | -7
C[N+]1(CC(O)c2ccccc2)CCCCCC1 (stereo not drawn) | · | · | · | 3.5 | -5
O=C(O)C(Cc1cc(Cl)ccc1Cl)Sc1nc2ccccc2[nH]1 (stereo not drawn) | · | · | -11% | -0.2 | -4
CCCn1c(N/N=C(C)\C=C\c2ccccc2)nc2c1c(=O)[nH]c(=O)n2C | -2 | · | 11% | -8.1 | 4

The last five records of the part above are carried over, then new ones follow.
SMILES | Arbovirus anti | YopH inh | Mtb growth | RecA splice inh | Mtb bLac sens | others
O=C(Nc1ccc2c(c1)OCCO2)C1CC(c2ccccc2Cl)=NO1 (stereo not drawn) | · | · | · | -0.4 | 0
O=C(Nc1ccc(F)cc1)c1cc(S(=O)(=O)N2CCOCC2)cs1 | · | · | · | -4.7 | -7
C[N+]1(CC(O)c2ccccc2)CCCCCC1 (stereo not drawn) | · | · | · | 3.5 | -5
O=C(O)C(Cc1cc(Cl)ccc1Cl)Sc1nc2ccccc2[nH]1 (stereo not drawn) | · | · | -11% | -0.2 | -4
CCCn1c(N/N=C(C)\C=C\c2ccccc2)nc2c1c(=O)[nH]c(=O)n2C | -2 | · | 11% | -8.1 | 4
CSc1nc2ncnc(N)c2[nH]1 | · | · | -15% | -2.8 | 2
CCN(CC)C(=O)c1ccccc1NC(=O)CN1C(=O)c2ccccc2C1=O | -3 | · | -8% | 0.8 | 2
C=CCn1c(COc2cc(C)ccc2C(C)C)nnc1SCC(=O)c1c(N)n(C)c(=O)n(C)c1=O | 6 | 0 | 8% | -1.8 | 2
O=S(=O)(NC1CC1)c1ccc(S(=O)(=O)N(Cc2ccccn2)C2CC2)cc1 | · | · | 5% | -2.0 | -8
CCOc1cc(/C=N/N=C(/N)c2nonc2N)cc(Br)c1OCc1ccc(Cl)cc1 | -22 | -13 | 1% | 0.3 | -3
COc1ccc(Cc2nnc(Nc3c(C)cccc3C)o2)cc1OC | · | · | 0% | 1.5 | -1
COCCNC(=O)C(c1cccs1)N(C(=O)Cn1nnc2ccccc21)c1cccc(C)c1 (stereo not drawn) | 0 | -23 | -5% | 0.2 | -3

Reprinted at random: two compounds from above.
SMILES | Arbovirus anti | YopH inh | Mtb growth | RecA splice inh | Mtb bLac sens | others
COc1ccc(Cc2nnc(Nc3c(C)cccc3C)o2)cc1OC | · | · | 0% | 1.5 | -1
CSc1nc2ncnc(N)c2[nH]1 | · | · | -15% | -2.8 | 2

Only part of the results is shown, so the mix of outcomes need not match the whole.
